Bioassay records: PubChem BioAssay, Broad Institute
Env fusion inh: inhibitors of HIV Env-mediated cell fusion. HeLa-JRFL Env/CEM21 cell fusion, luciferase. inhibition, % at 12.3 µM. 1.1% of 360,000 active. AID 651610;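 active means mean replicate inhibition score of at least 50 and every replicate individually at or above 50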;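 further: 0% = plate neutral controls and 100% = maraviroc near 300 nM; one replicate is shown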
Starred values were filed as active, the others as inactive; & = joins results of further samples; [ ] = dose if it differs, or a comment. An excerpt. The share of hits here may be higher or lower than overall.

Env fusion inh	molecule
-5.6[16.7 µM]	CO[C@H]1CN(C)C(=O)c2cc(NC(=O)NC3CCCCC3)ccc2OC[C@@H](C)N(CCc2ccccc2)C[C@H]1C
-11.2[16.7 µM]	CC(C)NC(=O)Nc1ccc2c(c1)C(=O)N([C@H](C)CO)C[C@H](C)[C@@H](CN(C)C(=O)Nc1ccccc1)OCCCC[C@@H](C)O2
-189.4	COC(=O)C1=C(C)N(Cc2ccccc2C(F)(F)F)C(=NCc2ccc(OC)cc2)NC1c1cccc(F)c1 (stereo not given)
7.0	O=C(O)c1ccccc1/C=N/Nc1ccc(S(=O)(=O)Nc2ccc(Cl)cc2)cc1[N+](=O)[O-]
-4.4[16.7 µM]	C=CCN1C(=O)[C@]2(CCS(=O)(=O)c3ccccc3)N=C(c3ccc(OCCCO)cc3)O[C@@H]2c2ccccc21
56.8*	O=S1(=O)N[C@H](Cc2ccccc2)COc2cccc(F)c21
1.8[16.7 µM]	CO[C@H]1CC[C@@H]2CCOc3c(C#N)cccc3C(=O)N(C)C[C@@H](c3ccccc3)CC(=O)N(C)C[C@@H]1O2
16.7[16.7 µM]	CCCNC(=O)C[C@@H]1CC[C@H]2[C@@H](COc3ccc(NC(=O)c4ccc5c(c4)OCO5)cc3C(=O)N2C)O1
-2.6[16.7 µM]	COc1ccccc1CNC(=O)C[C@@H]1C[C@@H]2c3cc(NC(=O)C4CCOCC4)ccc3O[C@@H]2[C@@H](CO)O1
3.0[16.7 µM]	CN1C(=O)c2cc(NC(=O)c3cccc(C(F)(F)F)c3)ccc2OC[C@@H]2O[C@@H](CC(=O)O)CC[C@H]21
-3.4[16.7 µM]	CO[C@H]1CC[C@@H]2CCOc3ccc(C#N)cc3C(=O)N(C)C[C@@H](OC)[C@H](C)C(=O)N(C)C[C@@H]1O2
2.6[16.7 µM]	CC(C)NC(=O)N(C)C[C@H]1OCCCC[C@H](C)Oc2ccc(N(C)C)cc2C(=O)N([C@H](C)CO)C[C@H]1C
-2.5[16.7 µM]	CCCN1[C@H](C(=O)NCCOC)[C@@H](CO)[C@@H]2Cn3c(ccc(-c4ccc(C(=O)N(C)C)cc4)c3=O)[C@@H]21
-12.4[16.7 µM]	C[C@H]1CN([C@@H](C)CO)C(=O)c2cccc(NC(=O)C3CCCCC3)c2O[C@@H]1CN(C)S(=O)(=O)c1cn(C)cn1
29.4	Brc1ccc2nc(-c3ccc(CN4CCC5(CC4)CNc4ccccc45)cc3)c(-c3ccccc3)nc2c1

Overlap with the part before: 2 compounds, followed by the next part.
Env fusion inh	molecule
-12.4[16.7 µM]	C[C@H]1CN([C@@H](C)CO)C(=O)c2cccc(NC(=O)C3CCCCC3)c2O[C@@H]1CN(C)S(=O)(=O)c1cn(C)cn1
29.4	Brc1ccc2nc(-c3ccc(CN4CCC5(CC4)CNc4ccccc45)cc3)c(-c3ccccc3)nc2c1
14.3[16.7 µM]	C[C@H](CO)N1C[C@H](C)[C@H](CN(C)C(=O)CCC(F)(F)F)OCc2cn(nn2)CCCC1=O
1.9[16.7 µM]	CC(C)C[C@H]1COCn2nncc2CC[C@H](Cc2ccccc2)C(=O)N1
3.4[16.7 µM]	C[C@H](CO)N1C[C@H](C)[C@@H](CN(C)Cc2ccc3c(c2)OCO3)Oc2ccc(NS(=O)(=O)c3ccccc3)cc2C1=O
5.8[16.7 µM]	C[C@@H]1CN([C@@H](C)CO)C(=O)c2cc(NC(=O)Nc3cccc4ccccc34)ccc2O[C@@H]1CN(C)Cc1ccncc1
24.8[16.7 µM]	CCCN1C[C@H](C)[C@H](OC)CN(C)C(=O)c2cc(NC(=O)Nc3cccc(F)c3)ccc2OC[C@@H]1C
-9.4	Cc1ccc(S(=O)(=O)N2CCCc3nc(-c4ccccc4)ccc32)cc1
19.8	CSc1n[nH]c(-c2cccs2)n1
-74.6[16.7 µM]	C[C@H]1CN([C@@H](C)CO)C(=O)Cc2cc(NS(=O)(=O)c3cn(C)cn3)ccc2O[C@H]1CN(C)S(=O)(=O)c1ccc(F)cc1
16.4	COC(=O)[C@]12C[C@H](CC(=O)NCC34CC5CC(CC(C5)C3)C4)C(=O)N(Cc3ccc4c(c3)OCO4)C1=C[C@H](C(C)(C)C)O[C@@H]2C
-11.5[16.7 µM]	COc1ccccc1CNC(=O)C[C@@H]1CC[C@@H]2[C@H](COC[C@H](O)CN2Cc2ccc3c(c2)OCO3)O1
0.3[16.7 µM]	C[C@@H]1CN([C@@H](C)CO)C(=O)c2cc(N(C)C)ccc2O[C@@H]1CN(C)C(=O)NC1CCCCC1
4.0[16.7 µM]	CO[C@H]1CN(C)C(=O)c2cc(NC(C)=O)ccc2OC[C@@H](C)N(C(=O)c2cnccn2)C[C@@H]1C
0.6[16.7 µM]	CNC[C@H]1OCCCC[C@H](C)Oc2ccc(NS(=O)(=O)c3cccs3)cc2C(=O)N([C@@H](C)CO)C[C@@H]1C
11.9[16.7 µM]	CN1[C@@H]2c3ccc(-c4cccnc4)c(=O)n3C[C@@H]2[C@@H](CO)[C@@H]1C(=O)NCC1CCCCC1
-30.7	CCOC(=O)N1CCN(C(=O)C[C@H]2C[C@@]3(C(=O)OC)C(=C[C@H](COCc4ccccc4)O[C@@H]3C)N(CCC3=CCCCC3)C2=O)CC1

More structures.
Env fusion inh	molecule
-8.7[16.7 µM]	O=C(C[C@H]1C[C@@H]2c3cc(NC(=O)c4ccc5c(c4)OCO5)ccc3O[C@@H]2[C@H](CO)O1)NCCN1CCCCC1
9.9[16.7 µM]	C[C@@H]1CN([C@@H](C)CO)C(=O)c2cc(NS(C)(=O)=O)ccc2O[C@@H](C)CCCCO[C@@H]1CN(C)C(=O)CCCN(C)C
-6.2[16.7 µM]	C[C@@H]1CN([C@H](C)CO)S(=O)(=O)c2ccc(C3=CCCC3)cc2O[C@H]1CN(C)C(=O)C1CC1
-15.8	C[C@@H]1ON(C)[C@H]2C[C@H]3c4[nH]c5c(-c6ccccc6F)cccc5c4CCN3C(=O)[C@@H]12
-4.9[16.7 µM]	C[C@@H](NC(=O)[C@H]1[C@H](CO)[C@H]2Cn3c(cccc3=O)[C@@H]1N2CCC(F)(F)F)c1ccccc1
-25.4	CCCc1c(-c2ccccc2OC)ncn1CCc1ccccc1OC
1.3[16.7 µM]	Cc1ccc(-c2ccc3c(c2)O[C@H](CN(C)C(=O)C2CCCCC2)[C@H](C)CN([C@@H](C)CO)S3(=O)=O)cc1
-23.7[16.7 µM]	C[C@H]1CN([C@@H](C)CO)C(=O)Cc2cc(NC(=O)Nc3ccc(C(F)(F)F)cc3)ccc2O[C@@H]1CN(C)S(C)(=O)=O
4.2[16.7 µM]	CCN1[C@@H]2c3ccc(-c4ccccc4F)c(=O)n3C[C@H]1[C@H](CO)[C@H]2C(=O)NCc1ccc(F)cc1
2.3[16.7 µM]	CN1CCN(C(=O)C[C@H]2CC[C@@H](NC(=O)c3ccc4c(c3)OCO4)[C@@H](CO)O2)CC1
6.0[16.7 µM]	COCCNC(=O)C[C@@H]1CC[C@H]2[C@@H](COC[C@H](O)CN2S(=O)(=O)c2ccccc2F)O1
14.6	CCOC(=O)C1=C(C(=O)OCC)C2N(Cc3ccc(Br)cc3)c3ccccc3[C@@]23C[C@@H](C(=O)OC)N(S(=O)(=O)c2ccc(F)cc2)C3=N1 (stereo not given in full)
3.5[16.7 µM]	CS(=O)(=O)Nc1ccc2c(c1)[C@@H]1C[C@H](CC(=O)NCc3cc(F)ccc3F)O[C@H](CO)[C@@H]1O2
-6.8[16.7 µM]	COc1cccc(CN2CC3(CN(C(=O)Nc4c(C)noc4C)C3)c3c([nH]c4cc(OC)ccc34)[C@H]2CO)c1
-261.4	COC(=O)C1=C(C)N(Cc2ccccc2C(F)(F)F)C(=NCc2ccc3c(c2)OCO3)NC1c1ccccc1 (stereo not given)

Look-ups from the list.
CO[C@H]1CN(C)C(=O)c2cc(NC(C)=O)ccc2OC[C@@H](C)N(C(=O)c2cnccn2)C[C@@H]1C in Env fusion inh is listed with 4.0[16.7 µM]
O=C(C[C@H]1C[C@@H]2c3cc(NC(=O)c4ccc5c(c4)OCO5)ccc3O[C@@H]2[C@H](CO)O1)NCCN1CCCCC1 in Env fusion inh is listed with -8.7[16.7 µM]

Remaining list, next part.
Env fusion inh	molecule
-4.9&-14.6	CC(C)C[C@H]1COc2cccc(F)c2S(=O)(=O)N1
0.4[16.7 µM]	C[C@@H]1CN([C@@H](C)CO)C(=O)c2cc(NS(=O)(=O)c3cn(C)cn3)ccc2O[C@@H]1CN(C)C(=O)Nc1ccc(F)cc1
25.6[16.7 µM]	Cc1ccc(-c2ccc3c(c2)O[C@@H](CN(C)C(=O)C2CCCCC2)[C@@H](C)CN([C@H](C)CO)S3(=O)=O)cc1
7.6[16.7 µM]	C[C@@H]1CN([C@H](C)CO)C(=O)CCCn2cc(nn2)CO[C@@H]1CN(C)Cc1ccc(C(=O)Nc2ccccc2N)cc1
-21.9[16.7 µM]	CO[C@@H]1CN(C)C(=O)c2ccc(NC(=O)c3ccccn3)cc2OC[C@@H](C)N(CC2CC2)C[C@H]1C
-0.9[16.7 µM]	CO[C@H]1CN(C)C(=O)c2ccc(NC(C)=O)cc2OC[C@H](C)N(C(=O)Cc2ccccn2)C[C@H]1C
17.5	COc1cccc(C2NC(=S)N(Cc3ccc(Br)cc3)C(C)=C2C(C)=O)c1 (stereo not given)
-4.1[16.7 µM]	C[C@H](CO)N1C[C@H](C)[C@H](CN(C)C(=O)c2ccncc2)OCc2ccccc2-c2ccccc2C1=O
-3.9[16.7 µM]	COc1ccc(CN(C)C[C@H]2Oc3ccc(NS(=O)(=O)c4c(C)noc4C)cc3CC(=O)N([C@@H](C)CO)C[C@@H]2C)cc1
8.1[16.7 µM]	C[C@@H]1CN([C@H](C)CO)C(=O)c2cc(-c3cccc(F)c3)cnc2O[C@@H]1CN(C)C(=O)C1CC1
-1.1[16.7 µM]	O=C(Cc1ccccn1)N[C@H]1CC[C@@H](CCn2cc(-c3ccccc3)nn2)O[C@H]1CO
6.8[16.7 µM]	CC(C)NC(=O)Nc1ccc2c(c1)C(=O)N([C@@H](C)CO)C[C@@H](C)[C@@H](CN(C)CC1CC1)OCCCC[C@@H](C)O2
-13.2[16.7 µM]	COC(=O)C[C@H]1CC[C@@H]2[C@H](COC[C@@H](O)CN2S(=O)(=O)c2cn(C)cn2)O1
8.7[16.7 µM]	CO[C@@H]1CC[C@@H]2CCN(C)C(=O)[C@@H](C)[C@H](OC)CN(C)C(=O)c3cc(C#N)ccc3OC[C@@H]1O2
-10.1[16.7 µM]	COCCOC(=O)N1C(=O)[C@@]2(c3cc(C#CC4(O)CCCCCC4)ccc31)[C@H](c1ccc(OCCO)cc1)N1[C@H](c3ccccc3)[C@H](c3ccccc3)OC(=O)[C@H]1[C@@H]2C(=O)N1CCN(c2ncccn2)CC1

4 records picked at random from the list so far, as already listed:
Env fusion inh	molecule
8.1[16.7 µM]	C[C@@H]1CN([C@H](C)CO)C(=O)c2cc(-c3cccc(F)c3)cnc2O[C@@H]1CN(C)C(=O)C1CC1
25.6[16.7 µM]	Cc1ccc(-c2ccc3c(c2)O[C@@H](CN(C)C(=O)C2CCCCC2)[C@@H](C)CN([C@H](C)CO)S3(=O)=O)cc1
8.7[16.7 µM]	CO[C@@H]1CC[C@@H]2CCN(C)C(=O)[C@@H](C)[C@H](OC)CN(C)C(=O)c3cc(C#N)ccc3OC[C@@H]1O2
-3.9[16.7 µM]	COc1ccc(CN(C)C[C@H]2Oc3ccc(NS(=O)(=O)c4c(C)noc4C)cc3CC(=O)N([C@@H](C)CO)C[C@@H]2C)cc1

New compounds follow
Env fusion inh	molecule
3.5	COC(=O)[C@]12C[C@H](CC(=O)NCC34CC5CC(CC(C5)C3)C4)C(=O)N(Cc3ccccc3)C1=C[C@H](C(C)(C)C)O[C@@H]2C
15.9	CC(=O)C1=C(C)N(CC(C)C)C(=S)NC1c1ccc(Br)cc1 (stereo not given)
-11.6[16.7 µM]	CCS(=O)(=O)N[C@H]1CC[C@@H](CC(=O)NCc2ccccn2)O[C@H]1CO
-9.9[16.7 µM]	C[C@H]1CN([C@@H](C)CO)C(=O)CCCn2nncc2CO[C@@H]1CN(C)C(=O)Nc1ccc(N2CCN(C)CC2)cc1
-14.8[16.7 µM]	COc1cccc(NC(=O)N(C)C[C@H]2Oc3ncc(C#Cc4ccncc4)cc3C(=O)N([C@H](C)CO)C[C@H]2C)c1
1.0[16.7 µM]	CC(C)NC(=O)Nc1ccc2c(c1)C(=O)N([C@H](C)CO)C[C@@H](C)[C@@H](CN(C)Cc1ccncc1)OCCCC[C@H](C)O2
6.4[16.7 µM]	COC(=O)C[C@@H]1C=C[C@H](NC(=O)Nc2ccc(C(F)(F)F)cc2)[C@@H](CO)O1
11.1[16.7 µM]	COc1cccc(CNC(=O)[C@@H]2[C@@H](CO)[C@@H]3Cn4c(ccc(-c5cncnc5)c4=O)[C@H]2N3C(C)=O)c1
-7.5	CCOC(=O)C1=CCN(S(C)(=O)=O)C1c1ccc(Cl)cc1 (stereo not given)
11.0[16.7 µM]	COCCNC(=O)[C@H]1[C@H](CO)[C@H]2Cn3c(ccc(-c4ccccc4F)c3=O)[C@H]2N1C(=O)C1CCCC1
-2.8[16.7 µM]	CCCN1C[C@@H](C)[C@@H](OC)CN(C)C(=O)c2cc(NC(=O)C3CCC3)ccc2OC[C@H]1C
19.5[16.7 µM]	COc1cccc(NC(=O)Nc2ccc3c(c2)C(=O)N(C)C[C@@H](OC)[C@H](C)CN(CC2CC2)[C@H](C)CO3)c1
-4.1[16.7 µM]	CN1CCN(C(=O)C[C@@H]2CC[C@@H]3[C@H](COc4ccc(NC(=O)c5cscn5)cc4C(=O)N3C)O2)CC1
3.2[16.7 µM]	O=C(Nc1ccccc1F)N[C@@H]1CC[C@@H](CCNC(=O)C2CCCCC2)O[C@@H]1CO
12.0[16.7 µM]	COC(=O)C[C@H]1C[C@H]2c3cc(NC(=O)c4ccc5c(c4)OCO5)ccc3O[C@H]2[C@H](CO)O1
1.3[16.7 µM]	CN(C)CC(=O)N1[C@H](C(=O)NC2CCC2)[C@@H](CO)[C@@H]2Cn3c(ccc(-c4ccccc4)c3=O)[C@@H]21
36.9	COC(=O)C1=C(C)N(C)C(=NCc2ccc(C(F)(F)F)cc2)NC1c1ccc(Cl)cc1 (stereo not given)
31.6[16.7 µM]	CO[C@H]1CC[C@H]2CCN(C)C(=O)[C@H](C)[C@@H](OC)CN(C)C(=O)c3cc(C#N)ccc3OC[C@H]1O2
